Screening data as filed in PubChem BioAssay.
YB-1 expression – YB-1 expression inhibition; U2OS, qRT-PCR YB-1 vs CDIP delta delta Cp, 16 h; active compounds read high; zero = DMSO, each unit about twofold; delta delta Cp (YB-1 minus CDIP) (no concentration beside the values); actives 0.37% (n = 30,000); AID 434959;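 active = delta delta Cp rounded down to an integer at or above 3, about 3 SD of DMSO wells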;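 note: higher means less YB-1 transcript or more CDIP transcript relative to DMSO; stock transfer was 100 nL into about 100 µL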
The depositor's hits bear a star.

SMILES	YB-1 expression
C[C@@H]1CN([C@@H](C)CO)C(=O)CCCn2nncc2CO[C@H]1CN(C)S(=O)(=O)c1cccc(C#N)c1	-0.28
C[C@H]1CN([C@@H](C)CO)C(=O)CCCn2nncc2CO[C@@H]1CN(C)CC1CC1	-0.081
COC(=O)CCCCCCC(=O)N/N=C/c1ccc(O)cc1	0.16
COC(=O)C(CC#Cc1ccc2c(c1)[C@]1(C(=O)N2)[C@H](c2ccc(O)cc2)N2[C@H](c3ccccc3)[C@H](c3ccccc3)OC(=O)[C@H]2[C@@H]1C(=O)N1CCCCCCC1)C(=O)OC	0.095
COc1ccccc1NC(=O)N(C)C[C@@H]1OCc2cnnn2CCCC(=O)N([C@@H](C)CO)C[C@H]1C	0.1
C[C@@H]1CN([C@H](C)CO)C(=O)CCCn2cc(nn2)CO[C@H]1CN(C)C(=O)c1ccncc1	0.33
COc1ccccc1CN(C)C[C@H]1OCc2cn(nn2)CCCC(=O)N([C@@H](C)CO)C[C@@H]1C	0.16
O=C(CCCCCC(=O)Nc1ccccc1O)N/N=C/c1ccc(Br)s1	0.14
COc1cccc(NC(=O)N(C)C[C@H]2OCc3cnnn3CCCC(=O)N([C@H](C)CO)C[C@@H]2C)c1	-0.078
COC(=O)CCCCCCC(=O)N/N=C\c1cccnc1Br	-0.18
COC(=O)CCCCCCC(=O)N/N=C/C[C@H](O)[C@H](O)[C@@H](C)O	-0.14
C[C@H]1CN([C@@H](C)CO)C(=O)CCCn2cc(nn2)CO[C@@H]1CN(C)C(=O)c1cc(-c2ccccc2)on1	-0.37

Continued; it opens with the four that closed the last part.
SMILES	YB-1 expression
COc1cccc(NC(=O)N(C)C[C@H]2OCc3cnnn3CCCC(=O)N([C@H](C)CO)C[C@@H]2C)c1	-0.078
COC(=O)CCCCCCC(=O)N/N=C\c1cccnc1Br	-0.18
COC(=O)CCCCCCC(=O)N/N=C/C[C@H](O)[C@H](O)[C@@H](C)O	-0.14
C[C@H]1CN([C@@H](C)CO)C(=O)CCCn2cc(nn2)CO[C@@H]1CN(C)C(=O)c1cc(-c2ccccc2)on1	-0.37
O=C(N/N=C/c1ccccc1OCCO)c1ccccn1	-0.046
O=C(O)c1cccc(/C=N/NC(=O)c2cccc(C(=O)NO)c2)c1	0.14
CO[C@H]1O[C@H](CO)[C@@H](OC(=O)c2ccc(Br)cc2)[C@H](OC(=O)c2cc3ccccc3[nH]2)[C@H]1OC(=O)c1cc2ccccc2[nH]1	0.41
O=C(N/N=C/c1ccc2ccccc2n1)c1ccccc1O	-0.12
C[C@H]1CN([C@@H](C)CO)C(=O)CCCn2nncc2CO[C@@H]1CN(C)C(=O)Nc1cccc(F)c1	-0.14
C[C@@H]1CN([C@@H](C)CO)C(=O)CCCn2cc(nn2)CO[C@H]1CN(C)Cc1cccnc1	-0.18
C[C@@H]1CN([C@@H](C)CO)C(=O)CCCn2cc(nn2)CO[C@@H]1CN(C)Cc1ccccc1	-0.11
Cc1ccc(/C=N/NC(=O)CCCCC(=O)NO)o1	0.51
C=C(C)[C@@H]1CC=C(/C=N/NC(=O)CCCCCCC(=O)O)CC1	-0.21
C[C@H](CO)N1C[C@H](C)[C@H](CN(C)Cc2ccncc2)Oc2ncc(Br)cc2C1=O	-0.38
COc1ccc(-c2cnc3c(c2)C(=O)N([C@H](C)CO)C[C@H](C)[C@H](CN(C)C(=O)Nc2ccc4c(c2)OCO4)O3)cc1	0.037
O=C1O[C@H](c2ccccc2)[C@H](c2ccccc2)N2[C@H]1[C@@H](C(=O)N1CCN(c3ncccn3)CC1)[C@]1(C(=O)Nc3ccc(C#CCCO)cc31)[C@H]2c1ccc(OCCO)cc1	-0.35
C[C@H]1CN([C@@H](C)CO)C(=O)CCCn2nncc2CO[C@@H]1CN(C)S(=O)(=O)c1cn(C)cn1	-0.23
CC(C)NC(=O)N(C)C[C@H]1OCc2cn(nn2)CCCC(=O)N([C@H](C)CO)C[C@H]1C	0.25
COC(=O)CCCCCCC(=O)N/N=C/c1ccc(F)c(Oc2ccccc2)c1	0.24
C[C@@H]1CN([C@H](C)CO)C(=O)CCCn2nncc2CO[C@@H]1CN(C)Cc1ccc(C(F)(F)F)cc1	-0.18
CCCCN(CCCC)c1ccc(/C=N/NC(=O)CCCCCCC(=O)OC)cc1	-0.21
C[C@@H]1CN([C@H](C)CO)C(=O)CCCn2nncc2CO[C@H]1CN(C)S(=O)(=O)c1cccs1	-0.43
COc1ccc(Br)c(/C=N/NC(=O)CCCCCCC(=O)Nc2ccccc2O)c1	0.11
C[C@H](CO)N1C[C@H](C)[C@H](CN(C)Cc2ccccc2)Oc2ncc(-c3ccccc3)cc2C1=O	0.55
CC(C)NC(=O)N(C)C[C@@H]1Oc2ncc(/C=C/c3ccccc3)cc2C(=O)N([C@H](C)CO)C[C@@H]1C	-1.4
O=C(O)CCCCCCC(=O)N/N=C/c1nccs1	-0.32
O=C(N/N=C/c1ccccc1O)c1ccccn1	0.032
O=C(N/N=C/c1ccc(Br)o1)c1ccccc1O	-0.089

An excerpt from above in order of length of the SMILES, highest first:
SMILES	YB-1 expression
CC(C)NC(=O)N(C)C[C@@H]1Oc2ncc(/C=C/c3ccccc3)cc2C(=O)N([C@H](C)CO)C[C@@H]1C	-1.4
C[C@@H]1CN([C@H](C)CO)C(=O)CCCn2nncc2CO[C@H]1CN(C)S(=O)(=O)c1cccs1	-0.43
COc1ccc(Br)c(/C=N/NC(=O)CCCCCCC(=O)Nc2ccccc2O)c1	0.11
COC(=O)CCCCCCC(=O)N/N=C/c1ccc(F)c(Oc2ccccc2)c1	0.24
O=C(N/N=C/c1ccc(Br)o1)c1ccccc1O	-0.089
O=C(N/N=C/c1ccccc1O)c1ccccn1	0.032

(next part)
SMILES	YB-1 expression
COC(=O)N(C)C[C@@H]1OCc2cn(nn2)CCCC(=O)N([C@H](C)CO)C[C@H]1C	0.22
O=C(N/N=C/c1ccc([N+](=O)[O-])s1)c1ccccc1O	0.17
NC(=O)NCC#Cc1ccc2c(c1)[C@]1(C(=O)N2)[C@H](C(=O)Nc2nc3ccccc3s2)[C@H]2C(=O)O[C@H](c3ccccc3)[C@H](c3ccccc3)N2[C@@H]1c1ccccc1OCCO	0.064
COc1cc2c(cc1OC)CN(C(=O)[C@H]1[C@@H]3C(=O)O[C@@H](c4ccccc4)[C@@H](c4ccccc4)N3[C@@H](c3ccc(OCCO)cc3)[C@]13C(=O)Nc1ccc(C#CC4=CCCCC4)cc13)CC2	-0.5
Cc1ccccc1S(=O)(=O)N(C)C[C@@H]1OCc2cnnn2CCCC(=O)N([C@H](C)CO)C[C@@H]1C	-0.72
C[C@@H]1CN([C@H](C)CO)C(=O)CCCn2cc(nn2)CO[C@@H]1CN(C)C(=O)C1CCCCC1	0.23
COc1ccc([Si](C)(C)[C@@H]2[C@@H](CC(=O)N3Cc4ccccc4C[C@H]3CO)O[C@]3(C(=O)N(C)c4c(Br)cc(C)cc43)[C@H]2C)cc1	-0.081
O=C1N(CCS(=O)(=O)c2ccccc2)c2ccccc2[C@H]2OC(c3ccc(OCCCO)cc3)=N[C@@]12CCS(=O)(=O)c1ccccc1	0.069
C[C@@H]1CN([C@@H](C)CO)C(=O)CCCn2nncc2CO[C@@H]1CN(C)Cc1ccc(-c2ccccc2)cc1	-0.14
COc1ccc(C#Cc2ccc3c(c2)[C@]2(C(=O)N3)[C@H](C(=O)N3CCN(c4ncccn4)CC3)[C@H]3C(=O)O[C@H](c4ccccc4)[C@H](c4ccccc4)N3[C@@H]2c2ccc(O)cc2)cc1	-0.032
C[C@H](CO)N1C[C@H](C)[C@@H](CN(C)S(=O)(=O)c2ccc(F)cc2)OCc2cn(nn2)CCCC1=O	-0.023
O=C(NCc1ccc(F)cc1)[C@H]1C[C@H]2C(=O)NCC(=O)N2[C@H]1c1ccc(O)cc1	0.23
CC(C)OC(=O)N(C)C[C@@H]1OCc2cn(nn2)CCCC(=O)N([C@H](C)CO)C[C@@H]1C	-0.7
COc1ccc([Si](C)(C)[C@@H]2[C@@H](CCO)O[C@]3(C(=O)N(Cc4ccccc4)c4ccc(N5CCC5=O)cc43)[C@H]2C)cc1	-0.2
COCCOC(=O)N1C(=O)[C@@]2(c3cc(C#CCNC(N)=O)ccc31)[C@H](c1ccccc1OCCO)N1[C@H](c3ccccc3)[C@H](c3ccccc3)OC(=O)[C@H]1[C@@H]2C(N)=O	-0.13
Cc1cccc(S(=O)(=O)N(C)C[C@H]2OCc3cnnn3CCCC(=O)N([C@H](C)CO)C[C@H]2C)c1	-0.22
C[C@H](CO)N1C[C@H](C)[C@H](CN(C)C(=O)Nc2ccccc2)OCc2cnnn2CCCC1=O	0.4
O=C(N/N=C/c1ccc2c(c1)Cc1ccccc1-2)c1ccccn1	0.16
C[C@H]1CN([C@@H](C)CO)C(=O)CCCn2nncc2CO[C@@H]1CN(C)C(=O)Nc1ccc(C(F)(F)F)cc1	0.11
C[C@H]1CN([C@@H](C)CO)C(=O)CCCn2nncc2CO[C@H]1CN(C)C(=O)NC1CCCCC1	-0.23
O=C(O)CCCCCC(=O)N/N=C/c1ccc(O)cc1Br	0.12
C[C@H]1CN([C@@H](C)CO)C(=O)CCCn2cc(nn2)CO[C@H]1CN(C)S(=O)(=O)c1ccccc1F	-0.24
O=C(CCCCCCC(=O)Nc1ccccc1O)N/N=C/c1cccnc1	-0.13
C[C@H](CO)N1C[C@H](C)[C@@H](CN(C)Cc2cccnc2)OCc2cn(nn2)CCCC1=O	-0.24
CCCN(C)C[C@@H]1Oc2ncc(-c3cccc(C(F)(F)F)c3)cc2C(=O)N([C@H](C)CO)C[C@@H]1C	-0.29
C[C@@H]1CN([C@@H](C)CO)C(=O)CCCn2cc(nn2)CO[C@H]1CN(C)Cc1cccc(C(=O)O)c1	-0.49
C[C@@H]1CN([C@H](C)CO)C(=O)CCCn2nncc2CO[C@@H]1CN(C)Cc1ccc2c(c1)OCCO2	0.33
COc1cc2c(cc1OC)CN(C(=O)[C@H]1[C@@H]3C(=O)O[C@@H](c4ccccc4)[C@@H](c4ccccc4)N3[C@@H](c3ccc(OCCO)cc3)[C@]13C(=O)Nc1ccc(C#CC4(O)CCCCCC4)cc13)CC2	0.1
C[C@@H]1CN([C@H](C)CO)C(=O)CCCn2nncc2CO[C@@H]1CN(C)C(=O)Nc1cccc(C(F)(F)F)c1	-0.68
C[C@@H]1CN([C@@H](C)CO)C(=O)CCCn2nncc2CO[C@@H]1CN(C)Cc1ccc(Oc2ccccc2)cc1	0.81
C[C@H]1CN([C@@H](C)CO)C(=O)CCCn2cc(nn2)CO[C@H]1CN(C)Cc1cccc(O)c1	-0.12
Cc1ccc(S(=O)(=O)N(C)C[C@H]2OCc3cn(nn3)CCCC(=O)N([C@@H](C)CO)C[C@@H]2C)cc1	0.061
C[C@@H]1CN([C@H](C)CO)C(=O)CCCn2nncc2CO[C@@H]1CN(C)C(=O)Nc1ccc(-c2cccs2)cc1	-0.68
COc1ccccc1CN(C)C[C@@H]1OCc2cnnn2CCCC(=O)N([C@H](C)CO)C[C@H]1C	-0.053
C[C@@H]1CN([C@H](C)CO)C(=O)CCCn2cc(nn2)CO[C@@H]1CN(C)Cc1ccccc1C(=O)O	-0.25
C[C@H](CO)N1C[C@H](C)[C@H](CN(C)C(=O)Nc2ccccc2)Oc2ncc(-c3ccccc3)cc2C1=O	-0.15
C[C@H](CO)N1C[C@H](C)[C@@H](CN(C)C(=O)c2ccncc2)OCc2cnnn2CCCC1=O	-0.35
C[C@@H]1CN([C@@H](C)CO)C(=O)CCCn2nncc2CO[C@@H]1CN(C)Cc1cccnc1	0.14
C[C@@H]1CN([C@@H](C)CO)C(=O)c2cc(NC(=O)Nc3cccc4ccccc34)ccc2O[C@H]1CN(C)Cc1ccc(C(=O)Nc2ccccc2N)cc1	0.22
C[C@H](CO)N1C[C@H](C)[C@H](CN(C)C(=O)Nc2ccc3c(c2)OCO3)Oc2ncc(-c3ccccc3)cc2C1=O	-0.34
COC(=O)[C@@H]1N=C(c2ccc(OCCCO)cc2)O[C@@H]1c1ccccc1N=[N+]=[N-]	0.09
O=C(N/N=C/c1ccc(Br)cc1)c1ccccn1	-0.73
C[C@H]1CN([C@@H](C)CO)C(=O)CCCn2nncc2CO[C@H]1CN(C)C(=O)Nc1ccc(C(F)(F)F)cc1	-0.16
COc1cccc(S(=O)(=O)N(C)C[C@@H]2Oc3ncc(C#Cc4cccc(F)c4)cc3C(=O)N([C@H](C)CO)C[C@@H]2C)c1	0.33
COC(=O)[C@]1(CCC(=O)OC(C)(C)C)N=C(c2ccc(OCCCO)cc2)O[C@@H]1c1ccccc1	-0.24
C[C@H](CO)N1C[C@H](C)[C@H](CN(C)C(=O)Nc2ccc(F)cc2)OCc2cnnn2CCCC1=O	0.016
C[C@H](CO)N1C[C@H](C)[C@@H](CN(C)C(=O)Nc2ccc(C(C)(C)C)cc2)OCc2cnnn2CCCC1=O	0.1
COC(=O)CCCCCCC(=O)N/N=C/c1ccccc1C(=O)O	-0.5
O=C1O[C@H](c2ccccc2)[C@H](c2ccccc2)N2[C@H]1[C@@H](C(=O)N1CCCCCCC1)[C@]1(C(=O)Nc3ccc(C#CC4=CCCCC4)cc31)[C@H]2c1ccc(OCCO)cc1	0.088
C[C@@H]1CN([C@@H](C)CO)C(=O)CCCn2nncc2CO[C@H]1CN(C)C(=O)c1cc(-c2ccccc2)on1	-0.11
Cc1ccsc1/C=N/NC(=O)c1ccccc1O	0.071
CC1(C)COC(CCC/C=N/NC(=O)c2ccccc2O)OC1	-0.32
O=C1CS(=O)(=O)C(c2ccccc2)N1c1ccc(-c2ccccc2)cc1 (stereo not given)	-0.2
O=C(CCCCC(=O)N/N=C/c1ccc(O)cc1)NO	0.36

This is a subset; rates above refer to the full screens.
